High-throughput results: PubChem BioAssay, Broad Institute
FGF22 binding – shifts melting point of recombinant human FGF22; 340,000 tested, 1.5% active; calls only at 9.99 µM; Q9HCT0; recombinant FGF22 thermal shift, SYPRO orange fluorescence; percent of sucrose octasulfate shift, DMSO zero; AID 651658;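 active means melting point raised past a set limit in the mean and every replicate; three in four hits are not shown here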
Target sequence (Q9HCT0 whole entry, looked up): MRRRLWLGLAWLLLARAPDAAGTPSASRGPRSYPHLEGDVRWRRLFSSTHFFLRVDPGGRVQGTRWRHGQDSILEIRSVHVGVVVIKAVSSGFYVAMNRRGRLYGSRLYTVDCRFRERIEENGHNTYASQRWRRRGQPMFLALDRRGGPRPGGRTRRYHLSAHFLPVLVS
rRNA inh HTS – inhibits bacterial ribosomal RNA function over humanized ribosomes; E. coli WT GFP vs humanized-ribosome RFP mutants, fluorescence, 24 h; stronger effect = lower value; DMSO median 0, no signal -100; 350,000 tested, 1.6% active; GFP signal change (wild-type ribosome), % (test concentration not listed); AID 720706;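 active means significant combined selectivity score with lowered wild-type GFP, culture density cut under 30%, mutant RFP and density less affected; inactive means any of these conditions unmet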; further: one replicate is shown; some compounds called inactive have numbers as strong as hits
rRNA inh HTS OD600 – also measured in rRNA inh HTS; calls as there; OD600 change, %; measured here: OD600 growth;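 optical density of the mix in the first replicate; 0 = DMSO median and -100 = no signal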
rRNA inh HTS RFP – recorded beside rRNA inh HTS, whose call it bears; RFP signal change, %; measured here: RFP humanized mutant strains;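 first replicate; 0 = DMSO median and -100 = no signal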
The depositor's hits bear a star; i = inactive. Not all compounds are listed; count on the stated rates, not on these rows.

nr	canonical_smiles	FGF22 binding	rRNA inh HTS	rRNA inh HTS OD600	rRNA inh HTS RFP
1	CC(C)NC(=O)Nc1ccc2c(c1)C(=O)N([C@H](C)CO)C[C@H](C)[C@H](CN(C)S(=O)(=O)c1ccc(Cl)cc1)OCCCC[C@@H](C)O2	i	1	2	-0.4
2	CC(C)NC(=O)NCC[C@@H]1CC[C@H](NS(=O)(=O)c2ccc(-c3ccccc3)cc2)[C@@H](CO)O1	i	-4	1	-2.8
3	CO[C@@H]1CN(C)C(=O)c2ccc(NC(=O)C3CCCC3)cc2OC[C@@H](C)N(C(=O)CC2CC2)C[C@@H]1C	i	1	2	-2.8
4	CN1C(=O)c2cc(NC(=O)c3ccc(F)c(F)c3)ccc2OC[C@@H]2O[C@H](CC(=O)N3CCCCC3)CC[C@@H]21	i	2	-3	-0.2
5	C[C@H](NC(=O)[C@@H]1[C@@H](CO)[C@@H]2Cn3c(ccc(C4=CCCCC4)c3=O)[C@@H]2N1C)c1ccccc1	i	-10	-11	1.1
6	O=C(C[C@@H]1CC[C@@H](NC(=O)c2ccccc2)[C@H](CO)O1)NCCc1ccncc1	i	0	8	-0.4
7	COc1ccc(CN(C)C[C@H]2Oc3c(NC(=O)c4cc(C)nn4C)cccc3C(=O)N([C@@H](C)CO)C[C@@H]2C)cc1	i	-3	1	-1.4
8	CO[C@H]1CN(C)C(=O)c2cc(NC(=O)c3ccno3)ccc2OC[C@@H](C)NC[C@H]1C	i	4	-4	1.1
9	C[C@H](CO)N1C[C@H](C)[C@H](CN(C)C(=O)Nc2ccc(F)cc2)Oc2ncc(C#CC3CC3)cc2C1=O	i	0	6	-0.6
10	COc1ccc(S(=O)(=O)Nc2ccc3c(c2)C(=O)N([C@@H](C)CO)C[C@@H](C)[C@@H](CN(C)S(=O)(=O)c2cccs2)OCCCC[C@H](C)O3)cc1	i	-3	-4	-0.5
11	C[C@H](O)C#Cc1ccc2c(c1)O[C@H](CN(C)Cc1ccccn1)[C@@H](C)CN([C@H](C)CO)S2(=O)=O	i	-5	-11	-1.5
12	C[C@H](CO)N1C[C@H](C)[C@H](CN(C)C(=O)Nc2ccccc2)Oc2ncc(-c3cccnc3)cc2C1=O	i	-2	1	-4.0
13	N#C[C@H]1[C@H](c2ccc(C#Cc3ccc(F)cc3)cc2)[C@H](CO)N1C(=O)C1CC1	i	1	2	1.2
14	C[C@@H]1CN([C@H](C)CO)C(=O)c2cc(-c3ccccc3F)cnc2O[C@@H]1CN(C)C(=O)NC1CCCCC1	i	-4	-7	-6.1
15	COc1ccc(CN(C)C[C@H]2Oc3ccc(NC(=O)C4CC4)cc3C(=O)N([C@@H](C)CO)C[C@H]2C)cc1	i	2	13	0.6
16	Cc1noc(C)c1C(=O)N(C)C[C@H]1OCc2ccccc2-c2c(n(C)c3ccccc23)C(=O)N([C@@H](C)CO)C[C@H]1C	i	-3	-3	0.0
17	CCCCOCC1CN(CCCC)S(=O)(=O)c2c(F)cccc2O1 (stereo not drawn)	i	-22	-25	-6.2
18	C[C@H](CO)N1C[C@H](C)[C@H](CN(C)Cc2ccc(Cl)c(Cl)c2)Oc2ccc(NC(=O)C3CC3)cc2C1=O	i	-1	-5	0.5
19	C[C@@H](NC(=O)C[C@@H]1C[C@H]2c3cc(NC(=O)C4CCC4)ccc3O[C@H]2[C@H](CO)O1)c1ccccc1	i	-3	-6	1.4
20	CCOC(=O)C1=C(C)N=c2s/c(=C/c3cccc(OCC(=O)O)c3)c(=O)n2C1c1ccc(F)cc1 (stereo not drawn)	i	6	5	7.7

Sorted by formula weight (falling): part of the list above
nr	canonical_smiles	FGF22 binding	rRNA inh HTS	rRNA inh HTS OD600	rRNA inh HTS RFP
1	CC(C)NC(=O)Nc1ccc2c(c1)C(=O)N([C@H](C)CO)C[C@H](C)[C@H](CN(C)S(=O)(=O)c1ccc(Cl)cc1)OCCCC[C@@H](C)O2	i	1	2	-0.4
16	Cc1noc(C)c1C(=O)N(C)C[C@H]1OCc2ccccc2-c2c(n(C)c3ccccc23)C(=O)N([C@@H](C)CO)C[C@H]1C	i	-3	-3	0.0
7	COc1ccc(CN(C)C[C@H]2Oc3c(NC(=O)c4cc(C)nn4C)cccc3C(=O)N([C@@H](C)CO)C[C@@H]2C)cc1	i	-3	1	-1.4
18	C[C@H](CO)N1C[C@H](C)[C@H](CN(C)Cc2ccc(Cl)c(Cl)c2)Oc2ccc(NC(=O)C3CC3)cc2C1=O	i	-1	-5	0.5
3	CO[C@@H]1CN(C)C(=O)c2ccc(NC(=O)C3CCCC3)cc2OC[C@@H](C)N(C(=O)CC2CC2)C[C@@H]1C	i	1	2	-2.8
15	COc1ccc(CN(C)C[C@H]2Oc3ccc(NC(=O)C4CC4)cc3C(=O)N([C@@H](C)CO)C[C@H]2C)cc1	i	2	13	0.6
2	CC(C)NC(=O)NCC[C@@H]1CC[C@H](NS(=O)(=O)c2ccc(-c3ccccc3)cc2)[C@@H](CO)O1	i	-4	1	-2.8
8	CO[C@H]1CN(C)C(=O)c2cc(NC(=O)c3ccno3)ccc2OC[C@@H](C)NC[C@H]1C	i	4	-4	1.1
6	O=C(C[C@@H]1CC[C@@H](NC(=O)c2ccccc2)[C@H](CO)O1)NCCc1ccncc1	i	0	8	-0.4
13	N#C[C@H]1[C@H](c2ccc(C#Cc3ccc(F)cc3)cc2)[C@H](CO)N1C(=O)C1CC1	i	1	2	1.2

Next part:
nr	canonical_smiles	FGF22 binding	rRNA inh HTS	rRNA inh HTS OD600	rRNA inh HTS RFP
21	C[C@H]1CN([C@@H](C)CO)C(=O)c2cccc(NC(=O)c3ccc(-c4nccs4)cc3)c2O[C@@H]1CN(C)S(=O)(=O)c1ccc(F)cc1	i	-4	-3	-3.1
22	COCc1cn(CC[C@H]2CC[C@H](NC(=O)c3ccccc3)[C@H](CO)O2)nn1	i	2	-2	-1.6
23	C/C=C/c1ccc2c(c1)O[C@H](CN(C)C(=O)c1ccc3c(c1)OCO3)[C@H](C)CN([C@@H](C)CO)S2(=O)=O	i	-3	-4	2.6
24	COc1ccc(S(=O)(=O)N(C)C[C@@H]2Oc3c(NS(=O)(=O)c4ccccc4)cccc3C(=O)N([C@H](C)CO)C[C@@H]2C)cc1	i	-4	-4	-0.7
25	CCC(=O)Nc1ccc2c(c1)C(=O)N(C)[C@@H]1CC[C@H](CC(=O)N3CCc4ccccc4C3)O[C@@H]1CO2	i	-1	-1	-1.3
26	O=C(Nc1ccc(F)cc1)N1CC(=O)N2[C@@H](CO)[C@H](c3ccc(-c4cccc(F)c4)cc3)[C@@H]2C1	i	-8	-30	3.5
27	O=C(C[C@@H]1CC[C@H]2[C@@H](COC[C@@H](O)CN2C(=O)c2cccnc2)O1)NC1Cc2ccccc2C1	i	-2	-3	0.6
28	O=C(C[C@H]1CC[C@@H]2[C@H](COC[C@H](O)CN2C(=O)Nc2cc(Cl)cc(Cl)c2)O1)N1CCOCC1	i	-52	-67	-15
29	C/C=C/c1ccc([C@H]2[C@@H](CNCC)N(c3nc(C)c(C)s3)[C@H]2CO)cc1	i	-2	-9	1.7
30	C[C@@H]1CN([C@@H](C)CO)S(=O)(=O)c2ccc(C#C[C@@H](C)O)cc2O[C@@H]1CN(C)Cc1cncnc1	i	-3	-6	0.0
31	C[C@H]1CCCCO[C@H](CN(C)Cc2ccc(C(F)(F)F)cc2)[C@@H](C)CN([C@@H](C)CO)C(=O)c2cc(NS(=O)(=O)c3cccs3)ccc2O1	i	-6	-31	16
32	CC=Cc1ccc2n(c1=O)C[C@H]1[C@H](CO)[C@@H](C(=O)NCCC)N(Cc3cccc(F)c3)[C@@H]21 (mixture of isomers)	i	-7	-7	0.1
33	C[C@@H]1CCCCO[C@H](CN(C)C(=O)NC2CCCCC2)[C@@H](C)CN([C@H](C)CO)C(=O)c2cc(NC(=O)CCC(F)(F)F)ccc2O1	i	0	-4	-2.5
34	COc1ccccc1-c1cn(CC[C@@H]2CC[C@@H](NC(=O)C3CCC3)[C@H](CO)O2)nn1	i	0	-1	-0.8
35	C[C@H](O)C#Cc1ccc2c(c1)O[C@H](CN(C)C(=O)C1CCC1)[C@@H](C)CN([C@@H](C)CO)S2(=O)=O	i	2	8	-1.9
36	O=C(c1ccc2c(c1)OCO2)N1C[C@@H]2[C@H](c3ccccc31)[C@@H](CO)N2Cc1ccccc1Cl	i	-15	-39	-1.9
37	C[C@H]1CN([C@@H](C)CO)C(=O)c2cc(NC(=O)CCN3CCOCC3)ccc2O[C@H]1CN(C)C	i	6	19	-0.6
38	O=S(=O)(N[C@@H]1CC[C@@H](CCn2cc(-c3ccccn3)nn2)O[C@@H]1CO)c1cccc(F)c1	i	2	3	-4.7
39	C[C@@H]1CN([C@@H](C)CO)C(=O)c2ccccc2-c2ccccc2CO[C@H]1CN(C)C(=O)Nc1ccccc1	i	2	10	-1.0
40	Cc1cc(C(=O)Nc2cccc3c2O[C@H](CN(C)Cc2ccncc2)[C@H](C)CN([C@H](C)CO)C3=O)n(C)n1	i	-1	-2	0.7

nr	canonical_smiles	FGF22 binding	rRNA inh HTS	rRNA inh HTS OD600	rRNA inh HTS RFP
41	O=C(C[C@@H]1C[C@H]2c3cc(NC(=O)NC4CCCC4)ccc3O[C@H]2[C@@H](CO)O1)NCc1cccc(F)c1	i	3	-2	0.9
42	C/C=C/c1cnc2c(c1)C(=O)N([C@H](C)CO)C[C@H](C)[C@@H](CN(C)C(=O)Nc1ccccc1F)O2	i	1	5	-1.9
43	Cc1ccc(S(=O)(=O)N(C)C[C@@H]2OCCCC[C@H](C)Oc3ccc(NC(=O)C4CCCCC4)cc3C(=O)N([C@@H](C)CO)C[C@H]2C)cc1	i	-2	3	2.9
44	C[C@@H]1CN([C@H](C)CO)C(=O)Cc2cc(NC(=O)Cc3cn(C)c4ccccc34)ccc2O[C@@H]1CN(C)Cc1ccccc1	i	-1	-11	12
45	CCCNC(=O)N(C)C[C@@H]1Oc2ncc(-c3cccc(C#N)c3)cc2C(=O)N([C@@H](C)CO)C[C@H]1C	i	4	12	-4.6
46	CO[C@H]1CN(C)C(=O)c2cc(NC(C)=O)ccc2OC[C@H](C)N(C(=O)C2CCOCC2)C[C@H]1C	i	2	3	-3.1
47	C[C@@H]1CN([C@H](C)CO)C(=O)c2cc(-c3cncnc3)cnc2O[C@H]1CN(C)CC1CCOCC1	i	4	4	-1.6
48	CCCNC(=O)N1CC2(CN(CC3CCCC3)C2)c2c(n(C)c3cc(OC)ccc23)[C@H]1CO	i	-1	-3	1.1
49	CNC[C@H]1Oc2ccc(NS(=O)(=O)c3cccs3)cc2CC(=O)N([C@@H](C)CO)C[C@@H]1C	i	3	1	1.0
50	C[C@@H]1CCCCO[C@H](CN(C)C(=O)c2ccccc2)[C@@H](C)CN([C@@H](C)CO)C(=O)c2cc(NC(=O)Cc3ccccc3)ccc2O1	i	-6	-7	0.1
51	Cc1noc(C)c1NC(=O)N(C)C[C@H]1Oc2ccc(NS(=O)(=O)c3cccs3)cc2CC(=O)N([C@H](C)CO)C[C@H]1C	i	-2	3	-2.6
52	C[C@H](CO)N1C[C@H](C)[C@@H](CN(C)C)Oc2cc(C#CC3CCCC3)ccc2S1(=O)=O	i	-4	-16	3.0
53	CCCN1C[C@@H](C)[C@@H](OC)CN(C)C(=O)c2ccc(NC(=O)c3cccc(OC)c3)cc2OC[C@@H]1C	i	0	3	-1.2
54	COc1ccc(CN(C)C[C@H]2Oc3ccc(NC(=O)C4CCCCC4)cc3C(=O)N([C@@H](C)CO)C[C@@H]2C)cc1	i	5	9	-2.1
55	O=C1N[C@@H](Cc2ccccc2)COCc2cn(nn2)CC[C@H]1Cc1ccccc1	i	-1	0	1.4
56	COCC(=O)Nc1ccc2c(c1)OC[C@H](C)N(C(=O)c1ccccc1)C[C@H](C)[C@@H](OC)CN(C)C2=O	i	2	2	-1.1
57	C[C@H]1CN([C@@H](C)CO)C(=O)c2cc(NC(=O)CCN3CCOCC3)ccc2O[C@H]1CN(C)S(=O)(=O)c1ccc(Cl)cc1	i	1	9	-1.7
58	CN(C)CC(=O)Nc1ccc2c(c1)[C@@H]1C[C@@H](CC(=O)NCc3cccnc3)O[C@@H](CO)[C@@H]1O2	i	4	12	-0.8
59	COc1ccccc1CNC(=O)C[C@H]1CC[C@H]2[C@@H](COC[C@@H](O)CN2C(=O)Nc2ccccc2)O1	i	-12	-13	-1.7
60	C[C@H]1CCCCO[C@@H](CN(C)C)[C@@H](C)CN([C@@H](C)CO)C(=O)c2cc(NS(=O)(=O)c3cn(C)cn3)ccc2O1	i	5	-3	-0.3
61	Cc1ccc(-c2cnc3c(c2)C(=O)N([C@@H](C)CO)C[C@@H](C)[C@@H](CN(C)C(=O)c2ccncc2)O3)cc1	i	-1	-3	1.5
62	CCC(=O)N(C)C[C@@H]1Oc2cc(-c3cccc(F)c3)ccc2S(=O)(=O)N([C@@H](C)CO)C[C@H]1C	i	-8	-11	-2.2
63	Cc1noc(C)c1NC(=O)N(C)C[C@@H]1Oc2cc(C#CCN(C)C)ccc2S(=O)(=O)N([C@H](C)CO)C[C@H]1C	i	8	25	1.6
